Myc binder = binders of human c-Myc, primary screen, biochemical, small molecule microarray, anti-His fluorescence; AID 624141, 2012; hit rate 1.5% among 17,000; Myc proto-oncogene protein (Homo sapiens), P01106; calls only; His-c-Myc binding;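 active = spot fluorescence over background with P-value below 7% in all four replicate spots, showing protein binding; compounds were printed on slides so no solution concentration is given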;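 note: score is binary with 100 for all four spots passing and 0 otherwise; about 2 pmol printed per array spot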
Target sequence (P01106 whole entry, looked up): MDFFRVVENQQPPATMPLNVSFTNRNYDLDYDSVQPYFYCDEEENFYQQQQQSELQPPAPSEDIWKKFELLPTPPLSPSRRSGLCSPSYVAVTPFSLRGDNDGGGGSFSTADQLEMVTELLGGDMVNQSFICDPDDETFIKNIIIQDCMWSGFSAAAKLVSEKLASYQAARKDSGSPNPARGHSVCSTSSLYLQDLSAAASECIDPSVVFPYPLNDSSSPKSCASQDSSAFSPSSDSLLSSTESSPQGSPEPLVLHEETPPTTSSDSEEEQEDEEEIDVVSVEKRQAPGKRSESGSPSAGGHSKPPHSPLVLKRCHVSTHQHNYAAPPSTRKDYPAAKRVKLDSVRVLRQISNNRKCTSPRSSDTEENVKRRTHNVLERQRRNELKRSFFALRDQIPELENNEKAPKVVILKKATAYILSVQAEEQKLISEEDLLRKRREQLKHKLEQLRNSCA
ID4 binder = binders of human ID4 protein, primary screen, biochemical, small molecule microarray, single point | Flag-ID4 binding, fluorescence F/B | hit rate 1.2% among 31,000 | DNA-binding protein inhibitor ID-4 (Homo sapiens), P47928 | AID 624137, 2012 | calls only;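 active = spot signal over background at p below 0.07 in all four prints; compounds were printed on slides so no solution concentration is given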;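 note: a binder raises fluorescence above local background on the spot; about 2 pmol printed per array spot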
Target sequence (P47928 whole entry, looked up): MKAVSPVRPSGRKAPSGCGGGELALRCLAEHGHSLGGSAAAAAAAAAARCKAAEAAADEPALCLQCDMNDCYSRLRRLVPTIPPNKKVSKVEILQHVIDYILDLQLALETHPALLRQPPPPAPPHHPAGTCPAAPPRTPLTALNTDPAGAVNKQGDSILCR
STAT3 SMM = STAT3 binders, primary screen, biochemical, small molecule microarray, single point, set 2. Signal transducer and activator of transcription 3 (Homo sapiens), P40763. His-STAT3 binding, anti-His fluorescence. calls only. hit rate 0.2% among 17,000. AID 624138, 2012;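 active = compounds whose four printed spots each show fluorescence over background unusually high for their array block, chance value under 7%; compounds were printed on slides so no solution concentration is given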;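 note: about 2 pmol printed per array spot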
mut p53 SMM = binders of human mutant p53, primary screen, biochemical, small molecule microarray, anti-GST fluorescence; small molecule microarray binding; calls only; hit rate 0.4% among 17,000;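 active = compounds whose four printed spots each glow above background more than chance allows, each with a p-value under 7%; compounds were printed on slides so no solution concentration is given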;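 note: about 2 pmol printed per array spot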
Calls only; i = inactive; / = no result given; + = active, no number. A portion of the library; the hit share may differ from the screen's.

SMILES | Myc binder | ID4 binder | STAT3 SMM | mut p53 SMM
Cc1noc(C)c1NC(=O)Nc1ccc2c(c1)C(=O)N([C@H](C)CO)C[C@H](C)[C@@H](CN(C)C(=O)C1CCCCC1)OCCCC[C@@H](C)O2 | i | i | i | i
C[C@H]1CN([C@@H](C)CO)C(=O)Cc2cc(NC(=O)C3CC3)ccc2O[C@@H]1CN(C)S(=O)(=O)c1cn(C)cn1 | i | i | i | i
C[C@@H]1CN([C@H](C)CO)C(=O)c2cc(N(C)C)ccc2O[C@@H](C)CCCCO[C@H]1CN(C)Cc1ccccc1 | i | i | i | i
OC1[C@H](O)CO[C@@H](OC[C@H]2O[C@@H](OC/C=C/c3ccccc3)[C@H](O)[C@@H](O)[C@@H]2O)[C@H]1O (some centres not stated) | i | / | i | i
COc1ccc(NC(=O)N(C)C[C@@H]2OCCCC[C@@H](C)Oc3ccc(NC(=O)Nc4ccc(C(F)(F)F)cc4)cc3C(=O)N([C@H](C)CO)C[C@H]2C)cc1 | i | / | i | i
C[C@@H]1CN([C@@H](C)CO)C(=O)Cc2cc(NC(=O)Nc3ccc(C(F)(F)F)cc3)ccc2O[C@@H]1CN(C)C(=O)NC1CCCCC1 | i | i | i | i
Cc1noc(C)c1NC(=O)Nc1cccc2c1O[C@H](CN(C)S(=O)(=O)c1cccs1)[C@H](C)CN([C@H](C)CO)C2=O | i | i | i | i
C[C@@H]1CCCCO[C@@H](CN(C)C(=O)CCC(F)(F)F)[C@H](C)CN([C@@H](C)CO)C(=O)c2cc(N(C)C)ccc2O1 | i | i | i | i
COC(=O)C1=CO[C@@H](O[C@@H]2O[C@H](CO)[C@@H](O)[C@H](O)[C@H]2O)[C@@H]2[C@@H]3CN4CCc5c([nH]c6ccccc56)[C@]4(C[C@H]12)O3 | i | / | i | i
CS(=O)(=O)N(CC(N)=O)c1cc(Cl)c(Cl)cc1Cl | i | i | i | i
C[C@@H]1CN([C@H](C)CO)C(=O)c2cc(NC(=O)Nc3ccc4c(c3)OCO4)ccc2O[C@H]1CN(C)Cc1ccc(Cl)c(Cl)c1 | i | / | i | i
C[C@H](CO)N1C[C@H](C)[C@@H](CN(C)C(=O)Nc2ccccc2)OCCCC[C@H](C)Oc2ccc(NC(=O)Nc3ccccc3)cc2C1=O | + | i | i | i
Cc1noc(C)c1NC(=O)Nc1ccc2c(c1)C(=O)N([C@@H](C)CO)C[C@@H](C)[C@H](CN(C)Cc1ccccc1)O2 | i | i | i | i
O=c1cc(-c2ccc(O)c(O)c2)oc2cc(O)c(C3OC(CO)C(O)C(O)C3O)c(O)c12 (configuration not stated) | i | i | i | i
Cc1noc(C)c1S(=O)(=O)Nc1ccc2c(c1)CC(=O)N([C@@H](C)CO)C[C@H](C)[C@H](CN(C)S(=O)(=O)c1ccc(Cl)cc1)O2 | i | / | i | i
C[C@@H]1CN([C@@H](C)CO)C(=O)c2cc(NC(=O)NC3CCCCC3)ccc2O[C@@H]1CN(C)S(=O)(=O)c1ccc(Cl)cc1 | i | i | i | i
NS(=O)(=O)c1ccc(NC(=S)NCc2ccccn2)cc1 | i | i | i | i
Cc1noc(C)c1S(=O)(=O)Nc1ccc2c(c1)C(=O)N([C@H](C)CO)C[C@H](C)[C@H](CN(C)C(=O)Nc1ccc3c(c1)OCO3)O2 | i | i | i | i
CC(C)NC(=O)N(C)C[C@@H]1OCCCC[C@H](C)Oc2ccc(NC(=O)CCCN(C)C)cc2C(=O)N([C@H](C)CO)C[C@@H]1C | i | i | i | i
C[C@@H]1CCCCO[C@@H](CN(C)Cc2ccc3c(c2)OCO3)[C@@H](C)CN([C@@H](C)CO)C(=O)c2cc(NS(=O)(=O)c3ccccc3)ccc2O1 | i | i | i | i
COc1ccc(CN(C)C[C@H]2Oc3ccc(NC(=O)Cc4cn(C)c5ccccc45)cc3C(=O)N([C@@H](C)CO)C[C@H]2C)cc1 | i | i | i | i
CCCC(=O)Nc1ccc2c(c1)C(=O)N(CCC(=O)O)C2=O | i | i | i | i
C[C@@H]1CN([C@H](C)CO)C(=O)CCCn2nncc2CO[C@H]1CN(C)C(=O)Nc1ccc(-c2cccs2)cc1 | i | / | i | i
Cc1noc(C)c1NC(=O)Nc1cccc2c1O[C@H](CN(C)S(=O)(=O)c1cn(C)cn1)[C@H](C)CN([C@H](C)CO)C2=O | i | i | i | i
Cc1noc(C)c1NC(=O)Nc1cccc2c1O[C@H](CN(C)C(=O)Nc1ccc(F)cc1)[C@H](C)CN([C@@H](C)CO)C2=O | i | / | i | i
COc1ccc(S(=O)(=O)Nc2ccc3c(c2)C(=O)N([C@H](C)CO)C[C@H](C)[C@H](CN(C)S(C)(=O)=O)OCCCC[C@@H](C)O3)cc1 | i | / | i | i
C[C@@H]1CN([C@@H](C)CO)C(=O)c2cc(NC(=O)NC3CCCCC3)ccc2O[C@H]1CN(C)Cc1ccncc1 | i | i | i | i
CN(CCC#N)S(=O)(=O)c1cccc2nsnc12 | i | i | i | i
Cc1noc(C)c1NC(=O)Nc1cccc2c1O[C@H](CN(C)CC1CC1)[C@@H](C)CN([C@H](C)CO)C2=O | i | i | i | i
C[C@@H]1CCCCO[C@@H](CN(C)C)[C@H](C)CN([C@@H](C)CO)C(=O)c2cc(NS(C)(=O)=O)ccc2O1 | i | i | i | i
C[C@@H]1CN([C@@H](C)CO)C(=O)c2cc(NS(C)(=O)=O)ccc2O[C@H]1CN(C)CC1CC1 | i | i | i | i
C[C@H](CO)N1C[C@H](C)[C@@H](CN(C)C)OCCCC[C@H](C)Oc2ccc(NC(=O)Nc3ccc(C(F)(F)F)cc3)cc2C1=O | i | i | i | i
Cn1cccc1CNCCCN1CCOCC1 | i | i | i | i
CCN(CC(=O)Nc1ccc(C(N)=O)cc1)S(=O)(=O)c1ccc(F)cc1 | i | i | i | i
C[C@@H]1CN([C@@H](C)CO)C(=O)Cc2cc(NS(=O)(=O)c3cn(C)cn3)ccc2O[C@@H]1CN(C)C(=O)Nc1cccc2ccccc12 | i | i | i | i
C[C@H]1CCCCO[C@@H](CN(C)CC2CCCCC2)[C@@H](C)CN([C@@H](C)CO)C(=O)c2cc(NC(=O)c3ccncc3)ccc2O1 | i | / | i | i
C[C@H](CO)N1C[C@H](C)[C@H](CN(C)S(=O)(=O)c2cn(C)cn2)Oc2c(NC(=O)Nc3ccc(C(F)(F)F)cc3)cccc2C1=O | i | i | i | i
CC1(C)CC[C@]2(C(=O)O)CC[C@]3(C)C(=CCC4[C@@]5(C)CC[C@H](O[C@@H]6OC[C@H](O)[C@H](O)[C@H]6O)[C@@](C)(CO)C5CC[C@]43C)C2C1 (some centres not stated) | i | / | i | i
O=C(NC(NC(=S)Nc1ccc(F)c([N+](=O)[O-])c1)C(Cl)(Cl)Cl)C(c1ccccc1)c1ccccc1 (configuration not stated) | i | i | i | i
C[C@@H]1CN([C@H](C)CO)C(=O)Cc2cc(NC(=O)Nc3ccc(C(F)(F)F)cc3)ccc2O[C@@H]1CN(C)C(=O)NC1CCCCC1 | i | i | i | i
Cc1cc2ncn(CC(O)COc3c(C)cccc3C)c2cc1C (configuration not stated) | i | i | i | i
C[C@H](CO)N1C[C@H](C)[C@H](CN(C)CC2CCCCC2)OCCCC[C@H](C)Oc2ccc(NS(=O)(=O)c3cn(C)cn3)cc2C1=O | i | / | i | i
C[C@H](CO)N1C[C@H](C)[C@@H](CN(C)S(=O)(=O)c2ccccc2)Oc2c(cccc2N(C)C)C1=O | i | i | i | i
O=C(CCN1C(=O)C2C3c4ccccc4C(c4ccccc43)C2C1=O)Oc1cccc2cccnc12 (configuration not stated) | i | i | i | i
C[C@@H]1CN([C@@H](C)CO)C(=O)c2cc(NC(=O)CCCN(C)C)ccc2O[C@@H]1CN(C)Cc1ccc2c(c1)OCO2 | i | i | i | i
Cc1ccccc1OCC(=O)NCC(=O)O | i | i | i | i
COC(=O)c1cc(C)sc1NC(=S)NC(C)c1cn(C)nc1C (configuration not stated) | i | i | i | i
C[C@@H]1CN([C@H](C)CO)C(=O)c2cccc(NC(=O)c3ccc(-c4nccs4)cc3)c2O[C@@H]1CN(C)S(=O)(=O)c1cccs1 | i | i | i | i
C[C@@H]1O[C@@H](O[C@H]2[C@@H](O)[C@@H](C)O[C@@H](O[C@H]3[C@H](O)[C@@H](O)[C@H](O[C@H]4CC[C@@]5(C)C(CC[C@]6(C)C5C=CC5=C7CC(C)(C)CC[C@]7(CO)CC[C@]56C)[C@]4(C)CO)O[C@@H]3CO)[C@@H]2O[C@@H]2O[C@H](CO)[C@@H](O)[C@H](O)[C@H]2O)[C@H](O)[C@H](O)[C@H]1O (some centres not stated) | + | i | i | i
Cc1ccc(NC(=O)CSc2nc3ccc([N+](=O)[O-])cc3s2)cc1Cl | i | i | i | i
C[C@H]1CN([C@@H](C)CO)C(=O)c2cccc(NS(=O)(=O)c3ccc(Cl)cc3)c2O[C@@H]1CN(C)C(=O)Nc1ccc(F)cc1 | i | i | i | i
O=C(NCc1nc2ccccc2[nH]1)C1=C[C@H](C2CC2)C[C@H](OCc2ccc(CO)cc2)O1 | i | + | i | i
CNC[C@@H]1OCCCC[C@@H](C)Oc2ccc(N(C)C)cc2C(=O)N([C@@H](C)CO)C[C@H]1C | i | i | i | i
C[C@@H]1CN([C@@H](C)CO)C(=O)c2cccc(NC(=O)Nc3ccc(C(F)(F)F)cc3)c2O[C@H]1CN(C)C(=O)Nc1ccc(F)cc1 | i | i | i | i
O=C(O)CCc1ccc(NCc2cccc(Oc3ccccc3)c2)cc1 | i | i | i | i
Cc1ccc2c(c1)c1nc3ccccc3nc1n2CCN1CCOCC1 | + | i | i | i
C[C@@H]1CN([C@@H](C)CO)C(=O)c2cc(NC(=O)NC3CCCCC3)ccc2O[C@@H]1CN(C)Cc1ccncc1 | i | i | i | i
C[C@H]1CN([C@@H](C)CO)C(=O)Cc2cc(NC(=O)c3ccncc3)ccc2O[C@H]1CN(C)CC1CC1 | i | i | i | i
O=C1CC[C@@H]2c3[nH]c4ccc(F)cc4c3CCN12 | i | i | i | i
CNc1cc(OC)c(C(=O)NC2CCN(Cc3ccccc3)C2C)cc1Cl (configuration not stated) | i | i | i | i

The listing continues.
SMILES | Myc binder | ID4 binder | STAT3 SMM | mut p53 SMM
Cc1cc(C(=O)Nc2cccc3c2O[C@@H](CN(C)Cc2ccc4c(c2)OCO4)[C@H](C)CN([C@@H](C)CO)C3=O)n(C)n1 | i | i | i | i
C[C@@H]1CCCCO[C@@H](CN(C)C)[C@H](C)CN([C@@H](C)CO)C(=O)c2cc(NC(=O)Nc3ccc4c(c3)OCO4)ccc2O1 | i | i | i | i
COC(=O)CCN(C(=O)c1ccc(OC(C)=O)cc1)c1ccccn1 | i | i | i | i
CCCc1cc(=O)[nH]c(SCC(=O)Nc2cc(C)cc(C)c2)n1 | i | i | i | i
C[C@H](CO)N1C[C@H](C)[C@H](CN(C)S(=O)(=O)c2cccs2)Oc2ccc(NC(=O)Nc3ccc(F)cc3)cc2C1=O | i | i | i | i
C[C@@H]1CN([C@H](C)CO)C(=O)Cc2cc(NS(=O)(=O)c3ccccc3)ccc2O[C@H]1CN(C)S(=O)(=O)c1ccc(F)cc1 | i | i | i | i
COc1ccc(C(CC(=O)O)C(=O)O)cc1OC (configuration not stated) | i | i | i | i
C[C@@H]1CCCCO[C@@H](CN(C)C(=O)c2ccncc2)[C@H](C)CN([C@@H](C)CO)C(=O)c2cc(NS(C)(=O)=O)ccc2O1 | i | i | i | i
C[C@@H]1CCCCO[C@H](CN(C)Cc2ccccc2)[C@H](C)CN([C@@H](C)CO)C(=O)c2cc(NC(=O)CCCN(C)C)ccc2O1 | i | i | i | i
CCOC(=O)Cc1c(C)nc2c(-c3ccccc3OC)c(C)nn2c1C | i | i | i | i
C[C@H](CO)N1C[C@H](C)[C@H](CN(C)C(=O)CCCN(C)C)OCCCC[C@H](C)Oc2ccc(NC(=O)c3ccncc3)cc2C1=O | i | i | i | i

High-throughput results deposited in PubChem BioAssay by Broad Institute.
